High-throughput results from PubChem BioAssay.
NS1 function inh = inhibitors of influenza NS1 protein function | S. cerevisiae slowed by influenza A NS1, growth recovery by OD600 | Potency, µM (highest dose often 46.1 µM), without a hit: at the highest dose activity, positive = more growth | hit rate 0.4% among 270,000 | AID 2326; active means well fitted rising curve with a large enough effect; inconclusive means small, poorly fitted or top-dose-only effect; inactive means no such curve, though single readings can be large or run the other way; further: nearly all actives have a fitted effect of over 50% in size
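Growth recovery, yeast-based: influenza A NS1 expressed in S. cerevisiae causes slow growth, and suppressors are detected by OD600. The parent strain without NS1 is used as positive control.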
RE007 growth inh = less growth of the S. pombe RE007 Vpr strain | Potency, µM (highest dose often 92.2 µM), without a hit: top-dose activity change, negative = less growth | hit rate 0.21% among 360,000 | S. pombe RE007 Vpr strain, BacTiter-Glo ATP luminescence, 24 h; control for the full effect not named in the record; active = well fitted falling curve with a large enough effect; inconclusive = small, poorly fitted or top-dose-only effect; inactive = no such curve, though single readings can be large or run the other way;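 further: on the % scale 0 is the no-effect control and ±100 the full control effect; nearly all actives have a fitted effect of over 50% in size; the assay follows cell death caused by Vpr and the record does not say whether a fall means rescue or toxicity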
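Fission yeast strain RE007, carrying one chromosomally integrated HIV-1 vpr copy, was seeded at OD 0.01 in PMG+AL medium with 23 nL pinned compound. After 24 h at 30 °C and 99% humidity, viability was read by BacTiter-Glo luminescence.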
Marburg entry inh = Marburg virus entry inhibition. Marburg virus pseudotyped entry inhibition, cell reporter; control for the full effect not named in the record; about a third of the inactives were read at about 46 µM. AID 540276. hit rate 1.8% among 300,000. Potency, µM (top dose mostly 37.8 µM), for inactives: at the top dose activity change, negative = inhibition, most hits filed as inhibitors; active = well fitted inhibition curve with a large enough effect; inconclusive = small, poorly fitted or top-dose-only effect, or effect the other way; inactive = flat fitted curve, though single readings scatter; tested in HEK293 cells; about a fifth of its hits are not listed in these tables; further: on the % scale 0 is the no-effect control and ±100 the full control effect; luciferase read-out
2A StopGo = FMDV 2A StopGo reporter, luciferase signal; hit rate 1.2% among 410,000; Potency, µM (top dose mostly 57.9 µM), for the others: at the highest dose signal change, negative = less light; human cells with a luciferase reporter of 2A StopGo recoding; control for the full effect not named in the record; active = well fitted falling curve with a large enough effect; inconclusive = small, poorly fitted or top-dose-only effect; inactive = no such curve, though single readings can be large or run the other way; tested in HEK293T cells; further: on the % scale 0 is the no-effect control and ±100 the full control effect; nearly all actives have a fitted effect of over 45% in size; luciferase light after 4 h
Lassa entry inh = inhibitors of Lassa virus binding or cell entry. Potency, µM (series often up to 37.9 µM), for inactives: at the highest dose activity change, negative = inhibition, hits mostly inhibitors. AID 540256. hit rate 1.2% among 300,000. Lassa virus pseudotype entry inhibition, cell reporter; control for the full effect not named in the record; active means well fitted inhibition curve with a large enough effect; inconclusive means small, poorly fitted or top-dose-only effect, or effect the other way; inactive means flat fitted curve, though single readings scatter; tested in HEK293 cells; further: on the % scale 0 is the no-effect control and ±100 the full control effect; nearly all actives have a fitted effect of over 50% in size; luciferase read-out
Cruzain inh noDet = inhibitors of Trypanosoma cruzi cruzain without detergent | P25779 | purified cruzain, Z-FR-AMC fluorescence, no detergent | Potency, µM, inactives show max response, negative = inhibition, usual class: inhibitors | hit rate 2.3% among 200,000 | AID 1476;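 further: plate controls were enzyme without inhibitor for no effect and buffer without enzyme for full effect; nearly all actives have a fitted effect of over 40% in size; top concentration of the series not given in the record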
Target sequence (P25779 123-467 limits assumed): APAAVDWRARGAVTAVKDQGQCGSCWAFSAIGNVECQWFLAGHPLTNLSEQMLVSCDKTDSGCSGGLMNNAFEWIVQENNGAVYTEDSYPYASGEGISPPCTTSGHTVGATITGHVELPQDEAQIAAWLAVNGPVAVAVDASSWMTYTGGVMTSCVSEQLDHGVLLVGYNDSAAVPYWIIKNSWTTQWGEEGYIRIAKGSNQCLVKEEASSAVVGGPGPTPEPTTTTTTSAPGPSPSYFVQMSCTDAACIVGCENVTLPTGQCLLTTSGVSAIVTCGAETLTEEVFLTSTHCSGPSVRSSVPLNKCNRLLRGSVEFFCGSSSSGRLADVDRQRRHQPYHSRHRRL
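Detergent-free condition (0.00005% Triton X-100) in acetate buffer pH 5.5 with DTT. 1.5 nM enzyme and compound were pre-mixed 15 min, then 2 uM Z-FR-AMC substrate added; reaction progress from fluorescence change between first and third reads (60 s).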
SARS PLP yeast = inhibitors of SARS-CoV papain-like protease in yeast. S. cerevisiae expressing SARS-CoV PLpro, growth rescue; control for the full effect not named in the record. Potency, µM (doses to about 32.9 µM), inactives show top-dose activity, positive = growth rescue. hit rate 0.19% among 330,000. AID 485353; active means well fitted rising curve with a large enough effect; inconclusive means small, poorly fitted or top-dose-only effect; inactive means no such curve, though single readings can be large or run the other way; further: 0% is about no effect; nearly all actives have a fitted effect of over 55% in size; growth read by luminescence after 48 h
Cruzain inh Det = cruzain (T. cruzi) inhibition with detergent | P25779 | purified cruzain, Z-FR-AMC fluorescence, 0.01% Triton | Potency, µM, for inactives: max response, negative = inhibition, actives largely listed as inhibitors | hit rate 0.43% among 200,000;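 further: plate controls were neutral wells for no effect and buffer without enzyme for full effect; nearly all actives have a fitted effect of over 40% in size; top concentration of the series not given in the record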
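Read-out: AMC fluorescence (360 nm excitation, 450 nm emission), four reads over 2 min, first-to-third difference used. Conditions: cruzain 1.5 nM, Z-FR-AMC 2 uM, pH 5.5 acetate, 5 mM DTT, 0.01% Triton X-100.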
* = called active by the depositor; ? = inconclusive; / = no result given; & = joins results of further samples; [ ] = dose if it differs, or a comment. Unless noted, the call rests on the fitted dose curve; in most records, active means well fitted curve in the direction sought with a large enough effect; inconclusive means small, poorly fitted or top-dose-only effect, or another doubt; inactive means no such curve, though single readings can be large; an effect the other way counts as inactive or inconclusive. Potency means the concentration at half of the fitted maximal effect. An unsorted share of the library; about 4.7% have a hit in one of these screens.

| molecule | NS1 function inh | Cruzain inh Det | SARS PLP yeast | Lassa entry inh | RE007 growth inh | Marburg entry inh | 2A StopGo | Cruzain inh noDet |
| --- | --- | --- | --- | --- | --- | --- | --- | --- |
| COc1ccc(NC(=O)CN2C(=O)CCc3cc(S(=O)(=O)N4CCOCC4)ccc32)c(OC)c1 | / | 1.5% | / | 0%[46.1 µM] | / | / | 4% | 11% |
| N=c1sccn1CC(=O)Nc1ccccc1Sc1ccccc1 | / | / | -1% | ? | -23% | / | -28% | / |
| C=CCSc1nnc(-c2ccncc2)n1-c1ccc(OCC)cc1 | -7% | 4.7% | 1% | 10% | 9% | 6% | / | 3% |
| Cc1ccc(NC(=O)/C(C#N)=C/c2ccc(Sc3nc(C)cc(C)n3)o2)cc1 | 4% | -5.4% | 1% | ? | 15% | ? | / | 0% |
| O=C(C1CCC(CNc2nc(=S)[nH]c3ccccc23)CC1)N1CCN(c2ccccn2)CC1 (stereo unspecified) | -48% | -7.9% | -2% | -21%[14.3 µM] | -12% | -26% | ? | -5% |
| [O-]c1n[n+](-c2ccc(Cl)cc2Cl)cc2ccccc12 | 14% | / | 1% | -10% | 13% | ? | -2% | / |
| OC(C#CCN1CCCCCC1)(c1ccccc1)c1cccnc1 (stereo unspecified) | 0% | / | 0% | -10% | 15% | -22% | -6% | / |
| O=C1OCc2cc(NC(=O)C3CCCCC3)ccc21 | -10% | 0.7% | 2% | 21% | -1% | 12% | 39%[activator] | -7% |
| CCOc1cc(Br)cc(C(c2c(C(=O)O)[nH]c3ccccc23)c2c(C(=O)O)[nH]c3ccccc23)c1O | -6% | / | 13% | / | 8% | / | -8% | / |
| COc1ccc(C(C(=O)NC2CCCC2)N(CCN(C)C)C(=O)c2snc(C(N)=O)c2N)cc1 (stereo unspecified) | 3% | -5.4% | -3% | -4% | 1% | -11% | 27% | -3% |
| COC(=O)c1ccc(NC(=O)COC(=O)c2cccc3c(=O)c(C)c(-c4ccccc4)oc23)cc1 | -7% | -4.3% | 21% | 0% | -5% | 11%[46.1 µM] | -27% | ? |
| COC(=O)c1cc(OC)c(OC)cc1NC(=O)c1ccc2c(c1)CCN2S(C)(=O)=O | / | -1.8% | / | 0%[46.1 µM] | / | -9%[46.1 µM] | -17% | -7% |
| COc1ccc(C(=O)N(Cc2cc(OC)c(OC)c(OC)c2)c2ccccn2)cc1 | / | -1.6% | / | -25%[46.1 µM] | / | ? | -30% | -2% |
| CCC/C(=N\NC(=O)c1ccc(CSc2nncn2C)cc1)c1ccccc1 | ? | 0.5% | ? | 13% | -10% | ? | -15% | 10% |
| COC(=O)c1cc2oc3ccccc3c2n1Cc1cc(C)ccc1C | / | -0.2% | / | / | / | 15%[46.1 µM] | 5% | 5% |

Taken from above:
Cruzain inh Det result of `COC(=O)c1cc(OC)c(OC)cc1NC(=O)c1ccc2c(c1)CCN2S(C)(=O)=O` = -1.8%
2A StopGo result of `COc1ccc(C(=O)N(Cc2cc(OC)c(OC)c(OC)c2)c2ccccn2)cc1` = -30%
Cruzain inh Det result of `COC(=O)c1cc2oc3ccccc3c2n1Cc1cc(C)ccc1C` = -0.2%

Returning to the listing, starting three compounds before the break.
| molecule | NS1 function inh | Cruzain inh Det | SARS PLP yeast | Lassa entry inh | RE007 growth inh | Marburg entry inh | 2A StopGo | Cruzain inh noDet |
| --- | --- | --- | --- | --- | --- | --- | --- | --- |
| COc1ccc(C(=O)N(Cc2cc(OC)c(OC)c(OC)c2)c2ccccn2)cc1 | / | -1.6% | / | -25%[46.1 µM] | / | ? | -30% | -2% |
| CCC/C(=N\NC(=O)c1ccc(CSc2nncn2C)cc1)c1ccccc1 | ? | 0.5% | ? | 13% | -10% | ? | -15% | 10% |
| COC(=O)c1cc2oc3ccccc3c2n1Cc1cc(C)ccc1C | / | -0.2% | / | / | / | 15%[46.1 µM] | 5% | 5% |
| CC(=O)OCC1O[C@@H](O[C@@H]2C[C@H]3C(C)(C)[C@H](OC(C)=O)CC[C@]3(C)[C@H]3CC[C@]45C[C@]4(CC[C@H]5[C@@H](C)C[C@@H](O)[C@H](O)C(C)(C)O)[C@@]32C)[C@H](O)[C@@H](O)[C@@H]1O (stereo partly specified) | / | -12% | -2% | 15µM* | / | ? | / | ? |
| COc1ccccc1NC(=O)CCS(=O)(=O)c1ccc2c(c1)NC(=O)C(C)S2 (stereo unspecified) | -11% | / | -2% | / | 8% | / | -13% | / |
| C=CCN(CC=C)S(=O)(=O)c1ccc2nsnc2c1 | -2% | -3.3% | -2% | -5% | -7% | 10% | 7% | -1% |
| Cn1cnnc1SCC(=O)Nc1ccc2c(c1)CCC2 | -11% | 2.0% | 8% | ? | -1% | 17% | / | -7% |
| CCC(=O)N1CCN=C1SCc1cccc(F)c1 | 1% | / | 4% | / | -12% | / | 38%[activator] | / |
| O=S(=O)(NCc1ccccc1)c1cccc(S(=O)(=O)N2CCOCC2)c1 | 0% | -6.2% | -2% | -1% | 2% | -21% | 24% | 2% |
| CCSc1ncc(Cl)c(C(=O)Nc2ccccc2OC)n1 | -2% | / | 5% | / | 9% | / | -13% | / |
| CCOc1cc(C2c3c(-c4ccccc4O)n[nH]c3C(=O)N2CCc2ccccc2)ccc1O (stereo unspecified) | / | -3.5% | / | ? | / | 5%[46.1 µM] | -23% | ? |
| CSc1ccccc1C(=O)Nc1ccccc1C(=O)N1CCCC1 | 3% | / | -1% | / | -11% | / | -16% | / |
| CC[N+]1(C)CCCC(OC(=O)C(O)(c2ccccc2)c2ccccc2)C1 (stereo unspecified) | -4% | -0.5%&3.5% | 1% | 0% | 2%[18.4 µM] | 9%&9%&9%&9%&9%&9% | -1%&11% | 7%&16% |
| CCOC(=O)c1cc2sc(C)cc2n1C(C)C(=O)OCC (stereo unspecified) | -46% | -2.6% | -16% | 0% | -12% | 6% | -14% | -3% |
| Cc1nnc(NC(=O)CSc2nc3ccccc3[nH]2)s1 | / | / | 1% | 6%[46.1 µM] | 17% | 19%[46.1 µM] | -10% | / |
| CC(C)CN1CCNC(=O)C1CC(=O)N(C)CC1CCOCC1 (stereo unspecified) | 0% | / | 1% | 4% | 2% | -2%[46.1 µM] | -6% | / |
| Cc1ccc(C(=O)N[C@H](C(=O)OCc2nnc(-c3ccccc3)o2)C(C)C)cc1 | -4% | / | -1% | 4% | 2% | 16%[46.1 µM] | 14% | / |
| CNC(=O)CSc1nnc(-c2ccco2)n1-c1ccc(C)cc1 | -2% | 1.1% | -10% | 6% | -9% | ? | -13% | -7% |
| O=C(CCSCc1ccc(Cl)cc1)NCc1cccnc1 | / | / | -1% | ? | 3% | -18%[46.1 µM] | -23% | / |
| COc1ccc(NC(=O)c2cc(S(=O)(=O)N3CCCCCC3)cn2C)c(OC)c1 | / | -4.0% | / | -18%[46.1 µM] | / | / | -19% | 23% |
| COc1ccccc1N1CCN(c2nc3c(S(=O)(=O)c4ccc(C)c(C)c4)nnn3c3ccc(Cl)cc23)CC1 | / | -0.2% | / | / | / | -13%[46.1 µM] | -15% | ? |
| O=C(CCc1nc(-c2ccccc2F)no1)NCc1ccco1 | -5% | -1.9% | 5% | 19% | 3% | 12% | / | -1% |
| O=C(CCN1CCN(C(=O)c2ccco2)CC1)Nc1ccc(F)cc1 | -13% | 1.6% | -1% | -16% | -3% | -7%[46.1 µM] | -8% | -8% |
| O=C1C(=O)N(Cc2cccnc2)C(c2ccccn2)/C1=C(/O)c1ccc(F)cc1 (stereo unspecified) | ? | -1.9% | -2% | 5% | 0% | 22% | 6% | -8% |
| COc1ccc(-n2c(N)c(C(=O)NCc3ccco3)c3nc4ccccc4nc32)cc1 | 18% | -14% | 5% | 1% | 0% | -14% | / | ? |
| COc1ccc(CN(C)CC(=O)Nc2cccc(S(=O)(=O)N(C)c3ccccc3)c2)c(OC)c1 | / | / | -5% | ? | -16% | ? | -24% | / |
| Cc1cc(F)ccc1NC(=O)C1CCN(C(=O)Nc2ccccc2)CC1 | / | / | 1% | 3% | 1% | -18% | -9% | / |
| Cc1nonc1OCCNCCNc1ccc([N+](=O)[O-])c2cccnc12 | -2% | -10.0% | -3% | 1% | 1% | -27%[46.1 µM] | -15% | -17% |
| O=C(N/N=C/c1ccc[nH]1)c1cc2ccccc2cc1O | -25% | / | 2% | -28%[46.1 µM] | 4% | 23%[46.1 µM] | 9% | / |
| Cc1cccc(C)c1NC(=S)NC(C)(C)CO | 7% | / | 1% | / | -10% | / | -7% | / |
| O=C(NCc1ccco1)c1ccccc1NS(=O)(=O)c1ccc(Cl)s1 | -161% | ? | -53% | -18% | 2% | -20%[46.1 µM] | -24% | -16% |
| S=c1[nH]nc(-c2ccccc2Cl)n1Cc1ccccc1 | 1% | / | 1% | 10% | 4% | ? | 4% | / |
| COc1cccc(/C=C2\CCC(C3CCCC3)C2=O)c1OC (stereo unspecified) | -47% | / | -4% | 17%[46.1 µM] | 7% | ? | -27% | / |
| CC(C)(C)Cc1nnc(NC(=O)CCC2CCCCC2)s1 | -1% | / | -3% | 10% | -3% | 8% | -1% | / |
| O=C(NCc1cccc(C(F)(F)F)c1)c1cccc(S(=O)(=O)NCc2ccccc2)c1 | 9% | -7.4% | 1% | ? | / | ? | -20% | 4% |
| CN(CC(=O)Nc1ccccc1Cl)C(=O)Cn1nnc(-c2ccc(F)cc2)n1 | / | / | 2% | -5% | -5% | 10% | 11% | / |
| COc1ccc(NC(=O)c2ccccc2NC(=O)CSc2ccccc2)cc1 | -3% | -1.1% | 12% | ? | 0% | ? | 0% | -19% |
| Cc1ccccc1Cn1nc(C)c(NC(=O)c2cc3n(n2)C(C(F)F)CC(C(F)F)N3)c1C (stereo unspecified) | 4% | -0.4% | 0% | ? | 16% | -4% | -20% | ? |
| COC(=O)C(=O)N1CC2(C)CNCC(C)(C1)C2=O | -1% | / | -1% | -3%[46.1 µM] | -16% | ? | 12% | / |
